# Ecoli growth: E. coli growth inhibition, primary screen, OD600. Escherichia coli growth, 23 h; active compounds read low. 0.21% of 330,000 active. OD600 absorbance (no concentration beside the values);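 active = OD600 absorbance below the run mean of sample wells minus 3.6 SD, in any replicate, cut at about 0.56 in these data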;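 also: stock transfer was 300 nL into about 60 µL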
# Vif A3G: inhibitors of Vif binding to APOBEC3G peptide, primary screen, biochemical, TR-FRET, GST-Vif 1-94, biotin-A3G peptide, dose response retest (AID 1117319); Virion infectivity factor (Human immunodeficiency virus type 1 group M subtype B (isolate …; TR-FRET GST-Vif / biotin-A3G peptide binding; higher % means a stronger effect; test concentration not given here; strong numbers were not always called active; inhibition, %; hits with a dose series show IC50 in µM; 0.57% of 260,000 active;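 active = above the screen mean plus three standard deviations and confirmed in dose response; inconclusive = results disagree or hit not tested in dose response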;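 also: Vif residues 1-94 fused to GST binding biotinylated APOBEC3G peptide 110-148; 0% = full assay without inhibitor and 100% = GST in place of GST-Vif; retest series ran down from 100 µM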
# Beta2AR agonist: beta2AR agonists driving receptor internalization, primary screen, cell-based, FAP fluorogen, flow cytometry; Beta-2 adrenergic receptor (Homo sapiens), P07550; Am2.2-beta2AR cells; reference of the scale not given here; response, % (no concentration beside the values); 0.43% of 340,000 active; AID 504454, 2011;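 active = response above a set limit, near 3 SD of response in nonfluorescent compounds, cut at about 42% in these data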;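 also: stock transfer was 100 nL into about 11 µL; a reference agonist was the positive control; negative values mostly stem from fluorescent compounds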
# HNF4A DNA FP: change in binding of human HNF4A to DNA, primary screen, biochemical, fluorescence polarization, FITC-DNA; activity change, % at 10 µM; 1 h; 0.3% of 360,000 active; Hepatocyte nuclear factor 4-alpha (Homo sapiens), P41235; in the data active = activity change above about 30%, passing the limit was not always enough;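 also: controls were the assay level and a saturating level of protein; the project sought stronger binding though the title names inhibitors; some compounds called inactive have numbers as strong as hits; positive values seem to mean higher polarization but the record does not say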
# Target sequence (P41235 whole entry, looked up): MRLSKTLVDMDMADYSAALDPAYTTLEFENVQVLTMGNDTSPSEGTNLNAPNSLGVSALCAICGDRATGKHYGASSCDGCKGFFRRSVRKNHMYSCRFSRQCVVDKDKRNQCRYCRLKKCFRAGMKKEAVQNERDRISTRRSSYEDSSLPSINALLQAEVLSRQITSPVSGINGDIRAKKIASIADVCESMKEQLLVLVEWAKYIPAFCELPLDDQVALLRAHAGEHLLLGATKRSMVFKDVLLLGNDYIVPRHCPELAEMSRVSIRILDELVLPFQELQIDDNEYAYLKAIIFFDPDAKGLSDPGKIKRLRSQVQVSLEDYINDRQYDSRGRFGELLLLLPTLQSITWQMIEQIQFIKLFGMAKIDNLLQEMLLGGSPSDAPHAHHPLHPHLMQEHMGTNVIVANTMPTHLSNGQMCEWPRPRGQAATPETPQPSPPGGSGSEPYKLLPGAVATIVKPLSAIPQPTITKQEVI
# LANA-H2A inh: blockers of LANA interaction with H2A/H2B – biochemical, FP readout, HTS, primary screen | inhibition, % (test concentration not listed) | 0.6% of 320,000 active | Protein LANA1 (Human herpesvirus 8 type P (isolate GK18)), Q9QR71 | cell-free LANA-H2A/H2B peptide, fluorescence polarization; in the data active = inhibition mostly above about 10%, no sharp cut-off; inactive = mostly below about 6.7%;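 also: stock transfer was 7.5 nL into about 10 µL; 0% = median of vehicle wells and 100% = median of positive control wells; one replicate is shown; the record names a cut of 25% in any replicate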
# Bfl-1 A1 inh: caspase 3/7 activation in MEF A1-2A-BIM cells, primary screen, A1 inhibitor project, cell-based, luminescence, HTS. caspase activation, % (concentration not given with the values). 0.066% of 330,000 active. Caspase-Glo 3/7 luminescence, 3 h; percent of clofoctol response, vehicle zero;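 active = over half of replicate activation scores above 10%, or exactly half above 10 with the replicate mean above 10; inconclusive = replicate mean below 10 yet half the replicates above 10; inactive = over half of replicates below 10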;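 also: wells of about 30 µL received 50 nL stock; many hits fall short of the cut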
# UCH37 inh: inhibitors of human UCH37 deubiquitinase, primary screen, biochemical, Ub-AMC cleavage, fluorescence; inhibition, % (concentration not given with the values); AID 588478, 2011; 0.33% of 330,000 active; purified proteasome/UCH37;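 active = mean of two replicates above 20%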;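 also: 0% = compound-free wells with enzyme and 100% = wells lacking proteasome; stock transfer was 100 nL into about 20 µL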
# Target sequence (Q9Y5K5 whole entry, looked up): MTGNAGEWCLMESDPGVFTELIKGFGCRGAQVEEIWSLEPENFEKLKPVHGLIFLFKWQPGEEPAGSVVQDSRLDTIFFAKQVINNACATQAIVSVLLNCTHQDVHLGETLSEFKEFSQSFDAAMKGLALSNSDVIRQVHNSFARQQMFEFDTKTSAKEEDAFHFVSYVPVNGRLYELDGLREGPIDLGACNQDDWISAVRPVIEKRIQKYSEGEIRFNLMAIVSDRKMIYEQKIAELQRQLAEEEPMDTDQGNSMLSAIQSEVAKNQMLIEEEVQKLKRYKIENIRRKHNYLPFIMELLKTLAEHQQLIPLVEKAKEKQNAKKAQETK
#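 Assay system: Proteasome-bound UCH37. Buffer or medium: pH 7.4 Tris-HCl (50 mM) with ovalbumin, ATP-MgCl2, DTT. Incubation: 30 min preincubation with enzyme, 25 min cleavage at room temperature. Measured by: fluorescence, ex 355 nm, em 460 nm. Read-out basis: percent inhibition. Control set: wells without proteasome as full block, compound-free enzyme plus substrate as uninhibited.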
# An asterisk follows results filed as active; ? = inconclusive; . = no result given.
SMILES,Ecoli growth,Vif A3G,Beta2AR agonist,HNF4A DNA FP,LANA-H2A inh,Bfl-1 A1 inh,UCH37 inh
O=C(O)CC1S/C(=N/N=C/c2ccc(-c3ccc(Cl)cc3[N+](=O)[O-])o2)NC1=O (stereo unspecified),.,19.2%,-2.2,-1.1,1.6,.,.
c1ccc(Cn2nnc3c(NCC4CCCO4)ncnc32)cc1 (stereo unspecified),0.669,3.8%,5.3,0.7,-3.8,0.0,3.2
Cn1c(=O)c2c(nc(CN3CCOCC3)n2Cc2ccccc2)n(C)c1=O,0.685,.,-5.6,1.3,.,.,3.4
O=c1c(Cl)c(O)ccn1C1OC(CO)C(O)C1O (stereo unspecified),.,-1.4%,-13.2,-2.6,.,.,.
CCCc1cc(N2CCCC(C(=O)Nc3cc(Cl)ccc3OC)C2)n2ncnc2n1 (stereo unspecified),0.735,.,-8.9,0.3,2.3,-1.0,2.4
O=C(Cn1cc2c(n1)CCCC2)NCCc1ccccc1,0.675,0.5%,0.4,3.0,0.4,-0.3,2.6
O=C(CCN1C(=O)/C(=C\c2cccc(Br)c2)SC1=S)NCCCN1CCOCC1,0.619,.,-14.0,0.9,2.9,0.5,10.8
Nc1nnc(SCCCOc2ccc(F)cc2)s1,0.644,-1.6%,-8.8,0.2,25.3*,-0.6,-2.3
COc1ccccc1CN1C[C@@H]2C[C@@H](c3cccc(O)c3)N3CCC[C@@]23C1=O,0.712,.,5.2,3.6,2.6,0.0,-2.3
CCn1c(Cc2ccccc2)nnc1SCC(=O)NC(C)(C)C,0.727,-4.7%,1.1,1.3,.,.,0.9
O=C(CCS(=O)(=O)c1ccccc1)N1CCN(c2cccc(C(F)(F)F)c2)CC1,.,.,-0.8,-0.7,-0.5,-0.6,.
COC(=O)C(CC(C)C)NC(=O)CSc1nc(-c2ccccc2)c(C#N)c(=O)[nH]1 (stereo unspecified),0.703,-8.6%,-1.8,0.9,3.5,2.2,0.3
Cc1cc(C)c(S(=O)(=O)N2CCN(CCO)CC2)c(C)c1,0.662,25.1%,-0.8,2.5,-1.5,-0.7,0.7
O=c1[nH]c2ccccc2nc1/C=C(\O)C(F)F,.,?,-24.5,16.9,-1.4,0.1,.
Cc1nn(-c2ccccc2)c(Cl)c1/C=N/Nc1nc2ccccc2[nH]1,.,.,-3.3,67.9*,6.3,-5.8,.
Nc1nc(SCc2ccccc2)[nH]c(=O)c1-c1ccccc1,0.664,-2.7%,6.8,-0.2,5.5,-0.6,6.0
O=C(N/N=C/C=C/c1ccccc1)C(O)c1ccccc1 (stereo unspecified),.,.,-8.2,2.8,4.4,-0.1,.
CN1C[C@@H]2[C@@H]3C(=O)N(C)C(=O)[C@@H]3[C@](C)(C1=O)N2C(=O)c1ccc(Cl)cc1,.,.,5.4,1.4,.,.,1.3
CCN(CC)S(=O)(=O)c1cccc(NC(=O)COc2ncnc3sccc23)c1,0.635,-0.9%,-1.5,8.8,0.8,0.2,-0.4
Cc1ccc(C2CC(=O)C=C(Nc3ccc(Cl)cc3)C2)cc1 (stereo unspecified),.,-9.5%,-6.3,34.9*,0.3,1.0,1.1
CC1=CC2=NC(=O)/C(=C\c3cccn3CCOc3cc(C)cc(C)c3)C(=N)N2O1,0.692,4.4%,-11.8,1.7,0.7,0.5,3.8
O=C(Cn1cncn1)N/N=C/c1ccc(Cl)cc1,.,31.9%,6.5,0.0,2.1,-0.5,.
CCCN1CC(=O)N2C(c3cccc(OC)c3OC)c3[nH]c4ccccc4c3C[C@H]2C1=O (stereo partly specified),0.66,-3.2%,5.9,1.0,-0.6,-2.0,2.4
CCOC(=O)C1CCC2(CC1)C(C#N)=C(N)Oc1n[nH]c(C)c12 (stereo unspecified),0.746,-1.1%,-3.5,2.6,0.0,0.0,0.9
CCOc1ccc(OCCC(=O)OC(C)C(=O)Nc2ccc(C(C)=O)cc2)cc1 (stereo unspecified),0.725,.,1.4,1.6,0.5,-0.5,0.7
CC(=O)NC(Cc1cc(C)ccc1C)C(=O)N1CCN(C(=O)c2ccc(Br)cc2)CC1 (stereo unspecified),0.663,0.3%,-2.3,0.9,-0.1,-0.2,4.7
CC(=O)Nc1ccc(NC(=S)Nc2ccccc2)cc1,0.697,8.6%,-5.7,-2.0,2.0,0.7,-3.7
CCc1cccc(C)c1NC(=S)NCc1ccccc1,0.67,4.2%,1.6,2.9,-4.2,-0.1,-1.9
N#Cc1c(NC(=O)C2CCCO2)sc2c1CCCCCC2 (stereo unspecified),0.621,10.8%,-12.4,-0.1,4.0,0.0,1.9
O=C(CN1CCOc2ccccc21)NCc1ccc(F)cc1,0.755,10.2%,4.0,-3.5,0.3,0.9,2.9
CC(=O)Nc1sc2c(c1C(c1cccs1)N1CCOCC1)CCCC2 (stereo unspecified),0.722,-7.3%,17.6,2.1,3.7,0.7,2.6
Cc1c(N2C(=O)/C(=C\c3ccccc3O)SC2=S)c(=O)n(-c2ccccc2)n1C,0.648,-0.5%,11.1,-1.2,-9.9,-0.2,7.1
COc1ccc(-c2c(C)sc(NC(=O)c3ccnn3C)c2C#N)cc1,0.703,-66.5%,-2.0,-2.3,-0.8,0.3,-143.9
CCCCN(S(=O)(=O)c1ccccc1)S(=O)(=O)c1ccccc1,0.661,?,-0.6,1.6,0.0,0.9,4.4
CCOC(=O)CCCCC(=O)NC(CO)C(=O)NC (stereo unspecified),0.737,1.7%,0.6,0.4,0.9,0.4,-1.3
CCc1ccc(NC(=O)CN2C(=O)COc3ccc(S(=O)(=O)N4CCCC4)cc32)cc1,0.704,3.4%,1.3,0.9,-2.4,0.6,2.9
NC(=O)C1CCN(C(=O)N2c3ccccc3Sc3ccccc32)CC1,0.669,5.4%,-0.6,-6.5,2.9,0.6,7.8
CC(NC(=O)c1cc(-c2ccccc2)nc2ccccc12)C1CCCO1 (stereo unspecified),0.688,?,.,.,4.0,0.0,-3.0
CCN1CCc2nc3ccccc3c(C(=O)Nc3ccc(NC(C)=O)cc3)c2C1,0.688,.,-3.6,2.1,-2.7,-0.2,3.4
CCOc1ccc(Oc2c(/C=N/NC(C)=O)c(C)nn2-c2ccccc2)cc1,.,.,-3.1,1.6,-0.8,0.5,.
Cc1ccc(C)c(NC(=O)CSc2nnc(CCNC(=O)OC(C)(C)C)o2)c1,0.629,-0.4%,5.6,1.2,1.2,0.5,1.6
CCOc1ccc(OCC)c(NC(=O)CCn2cccc2)c1,0.719,-3.9%,1.1,-1.6,-1.2,0.1,-2.1
CCOC(=O)c1nn(-c2ccccc2F)c(C)c1C(C)=O,0.653,14.7%,6.8,-2.3,-0.8,0.4,0.3
Cc1ccc(NC(=S)NCc2ccccc2)c(C)c1,0.612,.,-5.6,0.5,3.1,0.4,1.2
Cc1ccc(-c2cc(C(=O)O)n[nH]2)o1,0.692,0.1%,-1.6,0.3,-8.9,0.0,0.7
O=C(NCCN1CCOCC1)NC1(C(F)(F)F)Oc2ccccc2O1,0.699,?,-3.5,-0.7,-0.5,1.3,-0.1
O=C(O)c1ccc(CN(c2ccccn2)S(=O)(=O)c2ccccc2)cc1,0.668,-1.9%,-0.8,-2.0,5.2,1.7,-11.7
COc1ccc(N2C(=O)CCC2(C#N)c2ccc(Br)cc2)cc1 (stereo unspecified),0.729,5.3%,-4.0,-4.6,-0.1,0.1,5.0
Cc1ccnc(SCC(=O)N2CCCc3ccccc32)n1,0.66,-14.8%,-5.4,1.7,5.5,0.1,1.5
O=C(COC(=O)/C=C/c1ccc(Cl)cc1)Nc1ccc2c(c1)OCCO2,0.676,-13.8%,6.3,-2.4,0.4,0.4,4.1

# The list continues:
SMILES,Ecoli growth,Vif A3G,Beta2AR agonist,HNF4A DNA FP,LANA-H2A inh,Bfl-1 A1 inh,UCH37 inh
CCCCNC(=O)N1CCCC(C(=O)c2cc(C)c(OC)c(C)c2)C1 (stereo unspecified),0.619,-1.8%,4.0,-0.5,-4.2,1.1,3.4
Cc1ccc(NC(=O)CSc2nc(=O)n(CCN(C)C)c3c2CCCC3)c(C)c1,0.706,-4.2%,-7.4,2.0,-1.1,1.1,2.8
O=C(C1CCCN1S(=O)(=O)c1ccc(Cl)c(Cl)c1)N1CCOCC1 (stereo unspecified),0.718,7.3%,-4.2,-1.1,-3.4,-0.1,4.5
CCOC(=O)c1csc(NC(=O)c2ccc(S(=O)(=O)N(C)C)cc2)n1,0.702,-2.5%,3.4,-0.9,-7.0,-0.5,-2.3
CCCn1nc(C(=O)OCn2nnc3ccccc3c2=O)c2ccccc2c1=O,0.713,-4.1%,0.8,-0.6,2.6,0.6,4.6
CC(C)(C)c1nc(NCCN2CCOCC2)c2nnn(Cc3ccccc3Cl)c2n1,0.759,25.4%,-3.5,0.9,3.2,0.0,2.4
O=C(CSc1ncn[nH]1)N1N=C(c2ccc(Cl)cc2)CC1c1ccco1 (stereo unspecified),0.634,.,-11.5,2.6,-0.9,-0.3,3.8
CSC(=NC#N)N1CCN(C(=NC#N)SC)CC1,0.686,3.3%,5.5,-0.2,-1.5,-1.3,7.3
CCOC(=O)c1nn(-c2ccc(C)cc2)c(C)c1C(C)=O,0.717,2.7%,-2.2,-4.2,0.1,-0.1,1.1
CC1(C)Oc2ccc(C(=O)NC3CCCCC3)cc2N(CC#N)C1=O,0.661,.,-1.9,-0.1,-5.9,-0.5,0.2
Cc1ccc(S(=O)(=O)/N=C(/Sc2ccccc2C(=O)O)c2ccccc2)cc1,.,-4.8%,-3.4,2.7,4.1,1.1,.
Cc1sc(NC(=O)CN2CCOCC2)nc1-c1ccc2c(c1)CCN2S(=O)(=O)c1ccccc1,0.661,73.7%,10.3,2.6,-3.3,-0.7,0.8
C#CCOCCOCCOCCNc1nc(N2CCN(C(=O)CCCCCCCCCCNC(=O)[C@@H](CCC(=O)O)n3cc(CCCCCN)nn3)CC2)nc(N2CCN(C(=O)CCCCCCCCCCNC(=O)[C@H](CCCCN)n3cc(C[C@@H](C)CC)nn3)CC2)n1,.,.,17.4,4.8,-10.9,0.9,.
COc1ccc(C(=O)CSc2nnc(-c3ccc(C)cc3)o2)cc1,0.699,-0.3%,2.5,2.3,2.4,1.1,1.4
COc1ccc(-c2ccc3c(c2)O/C(=C\c2ccsc2)C3=O)cn1,.,.,-8.9,22.5,6.0,1.4,-3.5
CC(C)OC(=O)c1ccc(NCc2cc(O)ccc2O)cc1,.,-0.3%,3.6,-0.7,.,.,.
COc1ccc(C2=NN(S(=O)(=O)c3ccccc3)C(c3ccccc3)C2)cc1 (stereo unspecified),0.676,-4.4%,3.7,-0.6,2.2,1.9,1.8
Cc1cnc(CN(C)C(=O)c2cc(COc3c(F)cccc3F)on2)[nH]1,0.682,.,-0.7,3.3,2.9,-0.6,4.8
C=C[C@H](Cc1ccccc1)N(Cc1ccccc1)S(=O)(=O)N(Cc1ccccc1)[C@H](C=C)Cc1ccccc1,.,.,0.6,2.7,-3.1,1.8,1.2
CCOc1cc(/C=N/n2c(C)nnc2C)ccc1O,.,-13.0%,-4.3,0.6,-5.1,-0.3,.
COc1cc2ccccc2cc1C(=O)N1CCOCC1,0.661,-0.9%,-5.5,0.0,1.5,1.8,-5.2
CN1CCN(/N=C/c2ccc(C#N)cc2)CC1,.,-8.7%,-1.7,3.2,-0.4,-0.2,.

# Compound activity as filed in PubChem.

# Outcome played no part in choosing rows. About 2.1% of those tested had a hit in this group.
